# Bioassay records deposited in PubChem by National Center for Advancing Translational Sciences (NCATS).
# Rango release inh: prevents RanGTP from dissociating the Rango-importin beta complex; O95149+P62826; Biochemical FRET Rango-importin beta, RanGTP-induced dissociation; Potency, µM (highest dose often 46.1 µM), for inactives: top-dose activity change, negative = inhibition; 0.071% of 340,000 active; active means falling FRET ratio curve, often poorly fitted, with flat reads before Ran was added; inconclusive means other falling curves, or compound fluorescence or quenching; inactive means flat or rising ratio curve;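 also: potency is read from the fitted curve at half-maximal effect; % of control where 0% means no effect; nearly all actives have a fitted effect of over 45% in size; -100% = wells without RanGTP and RCC1; the record marks most hits as doubtful in a second field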
#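 Two FRET readings bracket the reaction: one 5 min after compound meets Rango–importin beta, another 45 min after RanGTP-RCC1 (0.6 uM Ran, 0.2 uM RCC1, 2 mM GTP) is added. Only the second defines inhibition.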
# GLA inh pH 4.5: alpha-galactosidase A (human) inhibition, pH 4.5; activity change, negative = inhibition, % at 105 µM; 230,000 tested, under 10 active; purified enzyme, 4-MU-alpha-Gal fluorescence, pH 4.5; P06280; inconclusive = small, poorly fitted or top-dose-only inhibition, or a rising curve; inactive = flat fitted curve, though single readings scatter; no compound was filed as active;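 also: 0% = full activity with enzyme and -100% = basal without enzyme; dose as in the result columns while the protocol names 77 µM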
# Target sequence (P06280 whole entry, looked up): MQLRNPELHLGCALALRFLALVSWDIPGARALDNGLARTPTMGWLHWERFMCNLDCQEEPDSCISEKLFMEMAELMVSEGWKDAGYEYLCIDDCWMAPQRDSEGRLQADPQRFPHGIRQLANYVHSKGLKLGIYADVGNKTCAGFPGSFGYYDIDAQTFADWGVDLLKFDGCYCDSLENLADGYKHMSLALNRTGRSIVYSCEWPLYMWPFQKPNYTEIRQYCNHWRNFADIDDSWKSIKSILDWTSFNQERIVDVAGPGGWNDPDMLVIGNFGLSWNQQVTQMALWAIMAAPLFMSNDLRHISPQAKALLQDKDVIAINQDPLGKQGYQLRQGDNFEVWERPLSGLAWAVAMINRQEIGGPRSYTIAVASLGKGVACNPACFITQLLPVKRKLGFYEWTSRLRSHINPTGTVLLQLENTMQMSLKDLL
# Rango-impB inh: Rango-importin beta binding inhibition | Rango CFP/YFP FRET sensor + importin beta, 45 min | Potency, µM (series often up to 92.2 µM), for the others: at the top dose inhibition of complex formation | 0.031% of 340,000 active; active = rising FRET ratio curve, often small or poorly fitted; inconclusive = mostly compound fluorescence or quenching in the first reads; inactive = flat curves in all reads;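 also: potency is read from the fitted curve at half-maximal effect; 0% = DMSO wells and 100% = buffer wells lacking importin beta; nearly all actives have a fitted effect of over 15% in size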
#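 Inhibition scored from the CFP 486 nm/YFP 530 nm FRET ratio 45 min after adding 0.125 microM importin beta to 50 nM Rango biosensor preincubated 5 min with compound (room temperature, PBS with DTT, Tween-20, BSA). No-importin wells as positive control.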
# miR-21 FLuc: miR-21 reporter, rising signal; HeLa miR-21 FLuc reporter, luciferase, 48 h; 340,000 tested, under 10 active; Potency, µM (top dose mostly 38.3 µM), for the others: at the highest dose reporter change, positive = more light; active = well fitted rising curve with a large enough effect; inconclusive = small, poorly fitted or top-dose-only effect; inactive = no such curve, though single readings can be large or run the other way;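 also: % of control where 0% means no effect; miR-21 action dims this reporter so a rising signal means less miR-21 action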
#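 HeLa cells stably expressing CMV-driven firefly luciferase with a downstream miR-21 binding sequence, endogenously expressing miR-21, were treated with titrations (up to about 40uM final) for 48 hours at 37 degree Celsius. Luciferase luminescence was read after lysis.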
# * = called active by the depositor; ? = inconclusive; · = no result given; & = joins results of further samples.
SMILES,Rango release inh,GLA inh pH 4.5,Rango-impB inh,miR-21 FLuc
COc1ccc(OC)c(NC2=NCCCS2)c1,-8%,13,?,-5%
O=C(Nc1ccc(F)c([N+](=O)[O-])c1)N1C[C@H]2C[C@@H](C1)c1cccc(=O)n1C2,-2%,·,1.8%,0%
CN1C[C@H](C(=O)N[C@]2(C)O[C@@]3(O)[C@@H]4CCCN4C(=O)[C@H](Cc4ccccc4)N3C2=O)CC2c3cccc4[nH]cc(c34)C[C@H]21 (stereo not given in full),-19%&-9%,·,?,·
C=CCn1c(O)c(C(C)=Nc2cccc(C(F)(F)F)c2)c(=O)[nH]c1=O,-6%,1,-3.1%,3%
CCC(=NCC1CCCO1)c1c(O)n(-c2ccc(OC)cc2)c(=O)[nH]c1=O (stereo not given),20%,1,-0.4%,0%
CC(=NCc1ccc(F)cc1)c1c(O)n(C)c(=O)n(C)c1=O,3%,-11,-1.5%,12%
Cc1ccc(N=C(/N=C(\N)N[N+](=O)[O-])Nc2ccc(C)cc2)cc1,-7%,·,-1.2%,·
CC(=O)O[C@@H]1CC[C@]2(C)C3CC[C@@]4(C)C(C[C@@H](O)[C@@H]4O)C3[C@@H](OC(C)=O)C[C@H]2C1 (stereo not given in full),12%,·,-0.6%,·
O=[N+]([O-])NC1=NCN(Cc2ccco2)CN1Cc1ccco1,13%,-8,-4.7%,-2%
CN(C)c1ccc2c(c1)N=C(c1ccco1)OP2(=S)N1CCOCC1 (stereo not given),4%,5,5.4%,-37%
O=P(O)(O)C#Cc1ccccc1,·,-9,·,-9%
O=C1NC(=O)N(Cc2ccc(F)cc2)C(=O)/C1=C\c1ccoc1,?,2,?,-1%
Cc1cccc(OCCn2c(=O)oc3ccc(C)cc32)c1,-6%,3,1.2%,-68%
CCc1ccc(CN2CCCC(C(=O)c3sccc3C)C2)o1 (stereo not given),17%,2,8.7%,-1%
CC[N+](CC)(CC)CCCCCCCCCC[N+](CC)(CC)CC,0%,1,-3.0%,0%

# Reprinted from the part before: 5 entries, then new ones.
SMILES,Rango release inh,GLA inh pH 4.5,Rango-impB inh,miR-21 FLuc
O=P(O)(O)C#Cc1ccccc1,·,-9,·,-9%
O=C1NC(=O)N(Cc2ccc(F)cc2)C(=O)/C1=C\c1ccoc1,?,2,?,-1%
Cc1cccc(OCCn2c(=O)oc3ccc(C)cc32)c1,-6%,3,1.2%,-68%
CCc1ccc(CN2CCCC(C(=O)c3sccc3C)C2)o1 (stereo not given),17%,2,8.7%,-1%
CC[N+](CC)(CC)CCCCCCCCCC[N+](CC)(CC)CC,0%,1,-3.0%,0%
FC(F)(F)c1ccc2c(c1)ncn2C1CCN(Cc2nnnn2C2CCCCC2)CC1,2%,1,-4.0%,-4%
O=C(c1cc(Br)ccc1Cl)N1CCC2(CC1)OCCO2,-14%,-4,7.9%,-2%
CCN1CCN(Cc2cc(OC)c3c(c2)OCO3)CC1,14%,·,-1.3%,2%
O=c1[nH]c(=O)n(CCc2ccccc2)c(O)c1C=NCc1ccc2c(c1)OCO2,0%,6,0.3%,0%
CCCCCCn1c(=O)c(C(=O)Nc2cnccn2)c(O)c2ccccc21,0%,0,3.5%,-1%
COc1ccc(C(CC(=O)N2CCC3(CC2)OCCO3)NS(=O)(=O)c2ccc(OC)cc2)cc1 (stereo not given),-15%,-3,-6.1%,-1%
Cc1cc(C)c(C2=NOC(O)(C(F)(F)F)C2)c(=O)[nH]1 (stereo not given),16%,-2,13%,1%
CC(C)CC(=O)Nc1ccc(S(=O)(=O)N2CC3CC(C2)c2cccc(=O)n2C3)cc1 (stereo not given),-7%,·,8.7%,·
O=C1NC(=O)C(CCc2ccncc2)(c2ccccc2)C(=O)N1,10%,-28,0.2%,-5%
Cc1ccccc1CN1CCCN(Cc2ccc(Cl)cc2)S1(=O)=O,0%,·,1.7%,0%
COC(=O)C1=C(c2ccc(OC)c(OC)c2)C[C@@H]2CC[C@H]1N2C(=O)NCc1ccc(F)cc1,6%,·,-0.8%,·
COC(=O)C1C(C(=O)O)C2(Cl)C(Cl)=C(Cl)C1(Cl)C2(Cl)Cl (stereo not given),25%,·,-0.6%,·
Cn1nnc2cc(NC(=O)Nc3cccc(Cl)c3)ccc21,-6%,·,?,-65%
Cc1cc2c(C(C)C)c(O)c(O)c(C=O)c2c(O)c1-c1c(C)cc2c(C(C)C)c(O)c(O)c(C=O)c2c1O,·,-4&0&-9&-15&-16&-16&-11,·,?
O=c1[nH]c(=O)n(CCC2=CCCCC2)c(O)c1C=NCc1cccnc1,9%,6,-4.8%,-1%
CCN(CC)C(=O)c1ccc(NC(=O)c2ccc(N3CCCC3=O)cc2)cc1,4%,·,11%,·
C=Cn1ccnc1P(=S)(c1ccc(Cl)cc1)c1nccn1C=C,7%,5,3.4%,3%
Cc1cccc(CC(c2cccc(C)c2)N(C)C)c1 (stereo not given),28%,·,-0.6%,·
CCC(C)NC(=O)c1c(N)n(Cc2ccc3c(c2)OCO3)c2nc3ccccc3nc12 (stereo not given),?,22,?,-5%
COC(=O)C1=C(c2ccc(F)cc2F)C[C@@H]2CC[C@H]1N2C(=O)N1CCCCC1,-13%,·,6.5%,·
COc1ccc(C=C(C#N)c2ccc(OC)cc2)cc1,-5%,·,?,·
CN(C(=O)Oc1ccc(F)cc1)c1ccccc1,5%,·,0.0%,-4%
c1ccc2c(CN3CCOCC3)c[nH]c2c1,14%,·,4.2%,1%
COc1ccccc1-n1c(O)c(C=Nc2c(C)n(C)n(-c3ccccc3)c2=O)c(=O)[nH]c1=O,6%,-3,-1.0%,-5%
CC(CN1CCOCC1)C(C#N)(c1ccccc1)c1ccccc1 (stereo not given),12%,·,0.7%,·
CCOC(=O)C1=C(C)OC(N)=C(C#N)C12C(=O)Nc1ccc(C)cc12 (stereo not given),5%,3,-7.3%,2%
Cc1ccc(C(=O)N[C@@H](C)CN2C3=NC[C@@H](Cc4ccccc4)N3C[C@H]2Cc2ccc(O)cc2)cc1Br,-5%,-3,0.9%,?
COc1ccc2c3c([nH]c2c1)C(C)=NCC3,?,3&17&1&-7,2.5%,23%
O=C1c2ccccc2-c2cc3ccccc3cc21,-19%,·,?,·
CC(C(=O)c1c[nH]c2ccccc12)N1CCN(C(=O)c2ccco2)CC1 (stereo not given),-2%,-6,0.8%,-7%

# Results in Rango release inh, for some of the entries so far:
canonical_smiles | Rango release inh
CCN1CCN(Cc2cc(OC)c3c(c2)OCO3)CC1 | 14%
O=c1[nH]c(=O)n(CCc2ccccc2)c(O)c1C=NCc1ccc2c(c1)OCO2 | 0%
CCCCCCn1c(=O)c(C(=O)Nc2cnccn2)c(O)c2ccccc21 | 0%

# Further records:
SMILES,Rango release inh,GLA inh pH 4.5,Rango-impB inh,miR-21 FLuc
CCCCN1CCC(C#N)(Nc2ccccc2)CC1,1%,6,-2.2%,-1%
CCC(=NCc1cccnc1)c1c(O)n(-c2ccccc2C)c(=O)[nH]c1=O,0%,6,-3.8%,-1%
Cc1cc(N2CCNCC2)nc2ccccc12,-3%,·,6.2%,-4%
NC(=O)Cn1cc(C(=O)c2ccccc2F)c2ccccc21,0%,-1,1.6%,0%
NP(=O)(OCCCc1ccccc1)Oc1ccccc1Cl (stereo not given),11%,·,-0.8%,2%
COC(=O)C1=C(c2ccccc2)C[C@@H]2CC[C@H]1N2C(=O)NCCS(C)=O (stereo not given in full),-16%,·,-0.3%,·
CN(C)C(Cc1ccc(Cl)cc1)C(=O)c1ccccc1 (stereo not given),-29%,-5,-3.9%,-29%
CCCCC(=O)N/N=C/c1c(O)n(Cc2ccc(F)cc2)c(=O)[nH]c1=O,9%,-6,-1.1%,-1%
COCCNC(=O)N1[C@H]2CC[C@@H]1C(C(=O)OC)=C(c1ccc(-c3ccccc3)c(F)c1)C2,14%,·,0.1%,·
Brc1cc2c(cc1CN1CCN(c3ccccc3)CC1)OCCO2,-6%,·,2.6%,5%
CCCCCCn1c(=O)c(C(=O)Nc2ccncc2)c(O)c2ccccc21,·,-1,·,-1%
CC1(C)COC(Nc2cccc(Cl)c2)=N1,13%,0,1.8%,-23%
Cc1[nH]c2ccccc2c1CCNCc1ccco1,-1%,·,0.2%,-3%
c1ccc(CNc2c3c(nc4ccccc24)CCC3)cc1,-16%,-3,-3.3%,?
COc1ccc(OP(=O)(Nc2ccccc2)Nc2ccccc2)cc1,9%,0,-3.5%,16%
NP(=O)(Oc1ccccc1Cl)Oc1ccccc1Cl,0%,2,1.0%,-5%
COc1ccc(CC[n+]2cc(/N=C(\C)[O-])on2)cc1OC,0%,2,-2.8%,-7%
CCN1C(=O)/C(=C\c2ccc([N+](=O)[O-])s2)C(=O)NC1=S,·,0,·,4%
Nc1ccc2c3c(cccc13)CC2,?,7,?,21%
CC1CCC(N(C)C2CCN(C)CC2)CC1 (stereo not given),16%,·,-5.4%,-3%
O=C(CNS(=O)(=O)c1cccs1)N1CCC2(CC1)OCCO2,-9%,-3,-0.8%,-26%
O=C(/C=C/c1ccc(Cl)cc1)NC(=S)N1C[C@H]2C[C@H](C1)c1cccc(=O)n1C2,1%,·,-1.2%,-4%
O=C(NCc1ccccn1)c1ccccc1Cl,-1%,-5,-0.7%,-20%
CN(C)C(=O)Oc1cccc2c(OC(=O)N(C)C)cccc12,14%,7,-6.0%,-13%
C=CCN1C(=O)NC(=O)/C(=C/c2cnc(SC)nc2)C1=O,-2%,10,5.3%,-1%
CC/C(=C\C=C\[C@@H]1C=C[C@@H]2CCC[C@H]2[C@@H]1C(=O)c1ccc[nH]1)[C@@H]1O[C@@H]([C@@H](C)C(=O)O)CC[C@@H]1C,-10%,6,?,?
CCCCCCn1c(=O)c(C(=O)Nc2ncccc2C)c(O)c2ccccc21,-10%,·,-0.3%,14%
CC/C=C/CC(=O)N[C@@H](c1ccccc1)[C@@H](O)C(=O)O[C@H]1C[C@@]2(O)[C@@H](OC(=O)c3ccccc3)C3[C@](C)(C(=O)[C@H](OC(C)=O)C(=C1C)C2(C)C)[C@@H](O)C[C@H]1OC[C@@]31OC(C)=O (stereo not given in full),15%,·,-2.4%,11%
Cc1ccccc1OCCCn1cc(C(=O)C(=O)N2CCOCC2)c2ccccc21,5%,2,4.2%,-10%
COc1cc2c(cc1OC)CC[N+](C)=C2,-8%,22,2.1%,1%
COCCNC(=O)N1[C@H]2CC[C@@H]1C(C(=O)OC)=C(c1cccc(C#N)c1)C2,13%,·,3.2%,·
Cc1cc(C)cc(N2C(=O)NC(=O)/C(=C\c3cc(C)n(C)c3C)C2=O)c1,-7%,6,-4.1%,-1%
COc1ccc([C@@H](O)[C@@H](N)c2ccccc2)cc1,-9%,·,-0.2%,·
CC1=C2[C@@H]3OC(=O)[C@H](C)C3CC[C@@]2(C)C=CC1=O (stereo not given in full),-12%,·,3.2%,0%
Cc1ccc(-n2c(-c3cccs3)nc3ccccc3c2=O)cc1,10%,-8,1.7%,-3%
Cn1c(NN=O)nc2ccccc21,-11%,-5,-1.2%,-17%
OC(c1ccccc1)(c1ccccc1)C1CCNCC1,13%,-4&-5,7.8%,-5%
Cc1ccc(OP(N)(=O)Oc2ccc(C)cc2)cc1,-13%,5,-1.7%,-6%
CN1C(=O)c2ccccc2Sc2ccc(C(=O)N3CCC4(CC3)OCCO4)cc21,-1%,8,4.4%,-4%
COP(=O)(OC)c1nc(-c2cccc3ccccc23)oc1N1CCOCC1,?,-6,0.0%,-17%
Cc1ccc(N2C(=O)/C(=C/c3ccc(CN(CCC#N)S(C)(=O)=O)o3)C(=O)NC2=S)cc1C,·,3,·,-1%
CCCCCSc1cc(OC)c(CCNC)cc1OC,-5%,0,0.3%,-12%
O=C(c1cc2c(s1)-c1ccccc1OC2)N1CCC2(CC1)OCCO2,-6%,25,0.4%,-11%
CCS(=O)(=O)N1CCC(C(=O)N2CCC3(CC2)OCCO3)CC1,2%,5,-1.8%,-7%

# Only part of the results is shown; count on the stated rates, not on these rows.
